RE007 growth inh: less growth of the S. pombe RE007 Vpr strain | Potency, µM (series often up to 92.2 µM), for inactives: at the top dose activity change, negative = less growth | S. pombe RE007 Vpr strain, BacTiter-Glo ATP luminescence, 24 h; control for the full effect not named in the record | AID 651644 | 360,000 tested, 0.21% active; active = well fitted falling curve with a large enough effect; inconclusive = small, poorly fitted or top-dose-only effect; inactive = no such curve, though single readings can be large or run the other way;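 note: % is set by controls: 0 for no effect and ±100 for the full control effect; nearly all actives have a fitted effect of over 50% in size; the assay follows cell death caused by Vpr and the record does not say whether a fall means rescue or toxicity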
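Fission yeast strain RE007, carrying one chromosomally integrated HIV-1 vpr copy, was seeded at OD 0.01 in PMG+AL medium with 23 nL pinned compound. After 24 h at 30 °C and 99% humidity, viability was read by BacTiter-Glo luminescence.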
SARS PLP yeast: inhibitors of SARS-CoV papain-like protease in yeast; S. cerevisiae expressing SARS-CoV PLpro, growth rescue; control for the full effect not named in the record; Potency, µM (doses to about 32.9 µM), for the others: at the top dose activity, positive = growth rescue; 330,000 tested, 0.19% active; AID 485353; note: 0% is about no effect; nearly all actives have a fitted effect of over 55% in size; growth read by luminescence after 48 h
StopGo reporter: FMDV 2A StopGo reporter, luciferase signal | human cells with a luciferase reporter of 2A StopGo recoding; control for the full effect not named in the record | Potency, µM (titrated, usually from 57.9 µM), for the others: at the highest dose signal change, negative = less light | 410,000 tested, 1.2% active; active = well fitted falling curve with a large enough effect; inconclusive = small, poorly fitted or top-dose-only effect; inactive = no such curve, though single readings can be large or run the other way; tested in HEK293T cells; note: % is set by controls: 0 for no effect and ±100 for the full control effect; nearly all actives have a fitted effect of over 45% in size; luciferase light after 4 h
Lassa entry inh: Lassa virus entry inhibition; AID 540256; Potency, µM (highest dose often 37.9 µM), for inactives: top-dose activity change, negative = inhibition, actives largely listed as inhibitors; Lassa virus pseudotype entry inhibition, cell reporter; control for the full effect not named in the record; 300,000 tested, 1.2% active; active means well fitted inhibition curve with a large enough effect; inconclusive means small, poorly fitted or top-dose-only effect, or effect the other way; inactive means flat fitted curve, though single readings scatter; tested in HEK293 cells; note: % is set by controls: 0 for no effect and ±100 for the full control effect; nearly all actives have a fitted effect of over 50% in size; luciferase read-out
MARV entry inh: blocks Marburg virus binding to or entry into cells; Marburg virus pseudotyped entry inhibition, cell reporter; control for the full effect not named in the record; about a third of the inactives were read at about 46 µM; Potency, µM (titrated, usually from 37.8 µM), for inactives: at the top dose activity change, negative = inhibition, most hits filed as inhibitors; 300,000 tested, 1.8% active; active = well fitted inhibition curve with a large enough effect; inconclusive = small, poorly fitted or top-dose-only effect, or effect the other way; inactive = flat fitted curve, though single readings scatter; tested in HEK293 cells; about a fifth of its hits are not listed in these tables; note: % is set by controls: 0 for no effect and ±100 for the full control effect; luciferase read-out
NS1 function inh: influenza NS1 inhibition | S. cerevisiae slowed by influenza A NS1, growth recovery by OD600 | Potency, µM (top dose mostly 46.1 µM), for inactives: at the top dose activity, positive = more growth | 270,000 tested, 0.4% active | AID 2326; note: actives are rising curves; nearly all actives have a fitted effect of over 50% in size
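Recovery from NS1-induced slow growth read by OD600 in budding yeast switched to galactose assay medium (pH 6.0, -URA) at 1:100 dilution. Compound 23 nl per well; the matching strain lacking NS1 serves as control.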
Cruzain inh noDet: blocks cruzain activity in detergent-free assay; purified cruzain, Z-FR-AMC fluorescence, no detergent; Potency, µM, for the others: max response, negative = inhibition, most hits filed as inhibitors; 200,000 tested, 2.3% active; AID 1476; active = well fitted curve in the direction sought with a large enough effect; inconclusive = small, poorly fitted or top-dose-only effect, or another doubt; inactive = no such curve, though single readings can be large; an effect the other way counts as inactive or inconclusive;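 note: plate controls were enzyme without inhibitor for no effect and buffer without enzyme for full effect; nearly all actives have a fitted effect of over 40% in size; top concentration of the series not given in the record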
Target sequence (P25779 123-467 limits assumed): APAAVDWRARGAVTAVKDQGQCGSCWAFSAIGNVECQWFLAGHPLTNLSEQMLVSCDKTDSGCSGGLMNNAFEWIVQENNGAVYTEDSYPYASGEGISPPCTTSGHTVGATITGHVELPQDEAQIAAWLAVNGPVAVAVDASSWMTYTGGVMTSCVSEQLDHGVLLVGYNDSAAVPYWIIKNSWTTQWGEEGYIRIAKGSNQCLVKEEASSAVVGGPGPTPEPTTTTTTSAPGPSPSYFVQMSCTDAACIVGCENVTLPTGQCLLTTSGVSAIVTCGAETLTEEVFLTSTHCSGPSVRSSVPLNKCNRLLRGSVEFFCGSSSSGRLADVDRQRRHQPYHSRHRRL
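Purified cruzain at 1.5 nM, pre-incubated 15 min with compound at room temperature in 100 mM sodium acetate pH 5.5, 5 mM DTT, 0.00005% Triton X-100. Reaction started with 2 uM Z-FR-AMC; AMC fluorescence increase over 60 s gives rate.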
Cruzain inh Det: inhibitors of Trypanosoma cruzi cruzain with detergent; purified cruzain, Z-FR-AMC fluorescence, 0.01% Triton; Potency, µM, inactives show max response, negative = inhibition, hits mostly inhibitors; 200,000 tested, 0.43% active; AID 1478; active = well fitted curve in the direction sought with a large enough effect; inconclusive = small, poorly fitted or top-dose-only effect, or another doubt; inactive = no such curve, though single readings can be large; an effect the other way counts as inactive or inconclusive;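 note: plate controls were neutral wells for no effect and buffer without enzyme for full effect; nearly all actives have a fitted effect of over 40% in size; top concentration of the series not given in the record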
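Steps: dispense cruzain (1.5 nM final) in acetate buffer pH 5.5 with DTT and 0.01% Triton X-100; pin-transfer compounds; incubate 15 min RT; add Z-FR-AMC (2 uM final); read fluorescence every 30 s, using the 60 s intensity change.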
* = called active by the depositor; ? = inconclusive; nt = no result given; & = joins results of further samples; [ ] = another dose, or the depositor's remark. Unless noted, calls come from the whole dose curve; as a rule, active means well fitted rising curve with a large enough effect; inconclusive means small, poorly fitted or top-dose-only effect; inactive means no such curve, though single readings can be large or run the other way. Potency is the fitted concentration of half-maximal effect.

SMILES	RE007 growth inh	SARS PLP yeast	StopGo reporter	Lassa entry inh	MARV entry inh	NS1 function inh	Cruzain inh noDet	Cruzain inh Det
CC(C)(C)NC(=O)c1cccc2c1C(=O)c1ccccc1-2	-11.7%	-0.4%	6.0%	-22.7%[46.1 µM]	-15.5%[46.1 µM]	-4.9%	nt	nt
O=[N+]([O-])c1cccc(S(=O)(=O)Nc2nc3ccccc3nc2Nc2cccc(S(=O)(=O)N3CCCCC3)c2)c1	-1.0%	-6.5%	?	nt	nt	15.3%	?	-27.8%
O=S(=O)(NCc1ccccc1)c1ccc(S(=O)(=O)N2CCCC2)cc1	18.6%	0.6%	54.4%[activator]	0.1%	-4.3%[46.1 µM]	-4.2%	nt	nt
OC(CN1CCNCC1)Cn1c2ccccc2c2ccccc21 (stereo not given)	3.8%	0.5%	-24.0%	nt	nt	0.5%	nt	nt
COc1cc2nc(SCc3ccc(F)cc3)n3nc(CCn4c(C)nc5ccccc54)nc3c2cc1OC	nt	nt	-8.0%	?	3.7%[46.1 µM]	nt	-7.6%	0.4%
O=C(COC(=O)c1cc(F)cc(F)c1)Nc1cccnc1Cl	9.2%	-4.0%	-4.2%	3.9%	-22.7%	nt	nt	nt
COc1ccc(NC(C)=O)cc1S(=O)(=O)NC(Cc1ccccc1)C(=O)O (stereo not given)	-4.3%	1.3%	-7.8%	nt	nt	-4.4%	nt	nt
Cc1cccc(NC(=S)NC(=O)Cc2ccccc2)c1C	24.0%	7.0%	11.5%	?	11.3%[46.1 µM]	10.2%	nt	nt
O=C(CO/N=C/c1cccc([N+](=O)[O-])c1)Nc1ccc2ccccc2c1	-23.0%	-8.5%	23.6%	6.6%	2.5%	-4.5%	?	-7.2%
NCCC1CCCC(CCN)N1 (stereo not given)	5.6%[18.4 µM]	nt	-11.6%	4.1%	?	3.1%	6.9%	1.5%
CCSc1ccccc1C(=O)Nc1ccc(S(=O)(=O)NC(C)=O)cc1	16.1%	0.4%	-18.2%	-15.0%[46.1 µM]	?	0.9%	nt	nt
Cc1cccc(C(=O)N2CCc3cc(CNC(=O)CCc4ccccc4)ccc32)c1	nt	nt	?	-23.3%[46.1 µM]	nt	nt	-4.9%	-2.4%
Cn1nc(C(F)(F)F)c(C#N)c1N1CCN(c2cccc(C(F)(F)F)c2)CC1	-1.9%	nt	?	-3.4%	?	-1.3%	9.1%	0.4%
N#Cc1c(N)nc2c(c1-c1ccco1)CCCCC2	0.5%	nt	-3.6%	-0.3%	-2.2%	-1.4%	nt	nt
Cc1ccc(/C(N)=N/OC(=O)N2c3ccccc3Sc3ccccc32)cc1	-28.2%	nt	1.0%	-27.1%	?	nt	nt	nt
COc1cc(C(=O)Nc2ccc(C)cc2)c(-n2cnnn2)cc1OC	16.4%	0.5%	-4.2%	nt	nt	-7.0%	nt	nt
COc1cccc(CNC(=O)CCS(=O)(=O)c2cccs2)c1	6.1%	0.7%	-12.2%	6.4%	27.8%	14.9%	-4.3%	-2.2%
Cc1cc(C)c(S(=O)(=O)NCc2ccccn2)cc1C	8.9%	3.6%	39.7%[activator]	nt	nt	22.1%	nt	nt
Cc1c(-c2nc(-c3ccc4c(c3)OCO4)no2)nnn1-c1cccc(C(F)(F)F)c1	nt	nt	-2.5%	-13.3%[46.1 µM]	nt	nt	-16.2%	4.2%
O=C(CN1CCN(S(=O)(=O)c2ccc(Cl)cc2)CC1)Nc1ccc2c(c1)CCC2	-4.0%	-36.8%	-19.7%	?	?	-1.0%	14.6%	-5.9%
O=C(Cc1coc2ccc3ccccc3c12)NCc1ccccc1	14.2%	2.5%	11.9%	-19.2%	?	-8.5%	-13.6%	-4.3%
CC(=O)NCCc1nc2cc(NC(=O)COc3cccc(C)c3)ccc2n1C	-17.8%	0.4%	29.1%	-7.1%[46.1 µM]	1.1%[46.1 µM]	4.8%	nt	nt
CCOC(=O)c1ccc(NC(=O)CN2CCN(c3ccccc3)CC2)cc1	6.7%	-5.3%	-1.9%	?	6.5%	-43.0%	-0.2%	-7.3%
C=CCn1c(SCC(=O)Nc2cccnc2Cl)nnc1-c1ccccc1F	-17.9%	10.5%	?	?	-7.0%	18.2%	-8.1%	-3.2%
COc1ccc(CCn2c(=N)c(S(=O)(=O)c3ccccc3)cc3c(=O)n4ccccc4nc32)cc1	-5.5%	2.6%	21.8%	nt	nt	-6.3%	nt	nt
CCOC(=O)N1CCN(CC(=O)c2ccc3c(c2)CCN3C(C)=O)CC1	2.5%	4.6%	-18.0%	nt	nt	?	-3.2%	-0.1%
CCOc1ccccc1N1CCN(c2nc3ccccc3nc2C(C#N)C(=O)OC(C)C)CC1 (stereo not given)	7.8%	-0.7%	-13.1%	nt	-3.8%	0.0%	-4.0%	-8.1%
CCOCCCNC(=O)C(Cc1ccccc1)NS(=O)(=O)c1ccc2c(c1)c(=O)n(C)c(=O)n2C (stereo not given)	0.7%	2.5%	5.2%&2.7%	-2.3%&-10.9%[46.1 µM]	?	nt	-2.9%	-5.2%
Cc1ccccc1C(=O)c1ccccc1C(=O)c1ccccc1	71.5%	nt	0.0%	?	-27.4%	nt	nt	nt
CC(C)C(=O)c1cc2c(cc1NC(=O)Nc1cccc3ccccc13)OCCO2	nt	6.1%	nt	nt	2.8%	7.2%	25.4%	-1.6%
O=C(Cn1cnc2sc(-c3ccccc3)cc2c1=O)NCCc1ccccc1	7.4%	0.5%	21.5%	5.5%	10.5%	-0.2%	-22.5%	-1.0%
CCn1c(=S)sc2c(=O)n(CC(=O)Nc3ccc(OC)cc3)c(C)nc21	-10.9%	19.2%	-4.7%	nt	nt	2.1%	nt	nt
O=C(Nc1ccccc1)N1CCc2scc[n+]2-c2ccccc21	8.4%	-6.4%	-7.6%	0.5%	4.4%	13.2%	-8.1%	1.1%
CCOc1ccc(NC(=O)CCCn2c(=S)[nH]c3ccsc3c2=O)cc1	-3.9%	-1.0%	22.4%	-2.9%	0.5%[46.1 µM]	nt	nt	nt
CC(=O)c1cccc(NC(=S)N2c3ccccc3CC2C)c1 (stereo not given)	4.2%	0.1%	-26.5%	6.5%	5.2%[14.2 µM]	0.6%	nt	nt
O=C(COc1ccc2ccccc2c1)Nc1ccccc1C(=O)O	-1.2%	6.9%	46.2%[activator]	nt	nt	-18.1%	nt	nt
C=CCN1C(=O)NC(=O)/C(=C/c2ccc(OC)c(COc3ccc(NC(C)=O)cc3)c2)C1=O	-0.1%	-1.0%	2.4%	17.7%[46.1 µM]	-7.3%[46.1 µM]	-30.0%	nt	nt
O=S(=O)(c1cccc(NC(=S)N2CCN(c3ccc(F)cc3)CC2)c1)C(F)F	16.0%	-24.1%	?	-27.4%	-10.1%	-7.2%	-6.0%	-7.4%
CNC(=O)Oc1cccc(-c2cn3cc(Cl)ccc3n2)c1	?	-27.2%	-90.4%	?	2.82µM*	-30.9%	-9.5%	-8.0%
CN(C)c1cccc(C(=O)OC(C(=O)Nc2ccc([N+](=O)[O-])cc2Br)c2ccccc2)c1 (stereo not given)	-7.2%	-31.5%	-8.6%	-5.9%	11.0%	21.1%	15.8µM*	-1.7%
Cc1cccc(NC(=O)CN(C)S(=O)(=O)c2ccccc2)n1	17.9%	-3.2%	-7.6%	1.4%	-19.8%	8.8%	1.2%	4.6%
Nc1nonc1C(=O)N/N=C/c1ccc([N+](=O)[O-])o1	-22.9%	-4.3%	-29.6%	?	?	nt	nt	nt
CCn1c(=N)n(CC(=O)c2cccc([N+](=O)[O-])c2)c2ccccc21	-9.6%	-2.1%	23.6%	5.2%[46.1 µM]	?	8.9%	17.6%	-1.9%
Cc1ccc(S(=O)(=O)NCCC(=O)Oc2ccc3ccc(=O)oc3c2)cc1	-8.1%	-3.4%	17.0%	nt	nt	-31.2%	nt	nt
COc1ccc(C(=O)NC(=S)NNC(=O)c2cccc(C)c2)cc1	-22.1%	nt	-1.6%	?	?	nt	nt	nt
COc1cc2[nH]c(=O)c(C(=O)NCc3ccccc3Cl)c(O)c2cc1OC	5.6%	3.2%	-3.8%	7.1%	0.5%	18.9%	nt	nt
CCc1ccc(NC(=O)CSc2nccn(-c3ccc4c(c3)OCCO4)c2=O)cc1	30.3%	-13.5%	7.7%	2.4%	-1.1%	nt	nt	nt
c1ccc(-c2noc(CSc3nnnn3C3CCCCC3)n2)cc1	-19.7%	0.6%	14.5%	-0.2%	-5.5%	-55.7%	3.3%	-4.2%
Cc1ccc(C(=O)N/C(=C\c2ccc(C(C)C)cc2)C(=O)NCCCN2CCOCC2)cc1	-0.6%	-11.7%	-22.9%	?	?	-9.6%	10.9%	5.4%
CC(=O)Nc1ccc(S(=O)(=O)Nc2ccn(Cc3ccccc3Cl)n2)cc1	9.8%	1.8%	-6.1%	-6.9%[46.1 µM]	-19.3%[46.1 µM]	13.0%	nt	nt
CCCCN(C(=O)Cn1nnc2ccccc21)C(C(=O)NCCOC)c1ccccc1 (stereo not given)	8.7%	1.2%	17.7%	-2.4%	-7.4%	-6.2%	7.0%	6.4%
Cc1cc(Cl)ccc1N=c1ssnc1Cl	74.3%	-17.6%	?	-22.6%	-8.4%	-166.4%	?	-13.4%
CN(Cc1nc(Cc2ccccc2F)no1)Cc1cccc2ncccc12	0.2%	-2.0%	15.8µM*	?	3.3%[46.1 µM]	-9.9%	nt	nt
CCOCCn1c(=NC(=O)c2ccc(S(=O)(=O)N3CCOCC3)cc2)sc2cc(S(N)(=O)=O)ccc21	-8.4%	-4.1%	-24.3%	17.4%[46.1 µM]	-0.1%[46.1 µM]	1.4%	nt	nt
CCCCCCCNC(=O)C1(CC2CC(c3ccc(Cl)cc3)=NO2)CCN(C(=O)Cc2ccc(F)cc2)CC1 (stereo not given)	-2.2%	4.5%	-7.1%	nt	nt	11.0%	nt	nt
O=C(C1CCC1)N1CCN(S(=O)(=O)c2cccc(F)c2)CC1	-14.3%	2.2%	-21.9%	6.1%	24.3%	nt	nt	nt
COc1ccc(OC)c(S(=O)(=O)Nc2ccccc2C)c1	10.7%	4.2%	nt	9.8%	3.2%	-0.4%	-4.9%	-0.5%
